Screening data (PubChem BioAssay)
miR-21 FLuc: raises the signal of a miR-21 reporter | HeLa miR-21 FLuc reporter, luciferase, 48 h | Potency, µM (top dose mostly 38.3 µM), for the others: at the highest dose reporter change, positive = more light | 340,000 tested, under 10 active | AID 2288; active = well fitted rising curve with a large enough effect; inconclusive = small, poorly fitted or top-dose-only effect; inactive = no such curve, though single readings can be large or run the other way;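 note: % of control where 0% means no effect; miR-21 action dims this reporter so a rising signal means less miR-21 action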
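HeLa cells stably expressing CMV-driven firefly luciferase with a downstream miR-21 binding sequence, endogenously expressing miR-21, were treated with titrations (up to about 40uM final) for 48 hours at 37 degree Celsius. Luciferase luminescence was read after lysis.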
Rango dissoc inh: inhibitors of RanGTP-induced Rango-importin beta complex dissociation. O95149+P62826. Biochemical FRET Rango-importin beta, RanGTP-induced dissociation. Potency, µM (series often up to 46.1 µM), for the others: top-dose activity change, negative = inhibition. 340,000 compounds, 0.071% hits; active means falling FRET ratio curve, often poorly fitted, with flat reads before Ran was added; inconclusive means other falling curves, or compound fluorescence or quenching; inactive means flat or rising ratio curve;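 note: potency is the fitted concentration of half-maximal effect; % of control where 0% means no effect; nearly all actives have a fitted effect of over 45% in size; -100% = wells without RanGTP and RCC1; the record marks most hits as doubtful in a second field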
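Rango/importin beta premix (0.1/0.25 uM final), PBS + 1 mM DTT + 0.02% Tween-20 + 0.1% BSA; cpd 5 min RT; FRET pre-read; + RanGTP-RCC1 (0.6 uM Ran, 2 mM GTP, 0.2 uM RCC1); 45 min RT; FRET post-read, ex 430, em 486/530 nm.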
GLA inh pH 4.5: inhibitors of human alpha-galactosidase A at pH 4.5. purified enzyme, 4-MU-alpha-Gal fluorescence, pH 4.5. AID 1467. activity change, negative = inhibition, % at 105 µM. P06280. 230,000 tested, under 10 active; inconclusive = small, poorly fitted or top-dose-only inhibition, or a rising curve; inactive = flat fitted curve, though single readings scatter; no compound was filed as active;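 note: 0% = full activity with enzyme and -100% = basal without enzyme; dose as in the result columns while the protocol names 77 µM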
Rango complex inh: inhibitors of Rango-importin beta complex formation; 340,000 compounds, 0.031% hits; Potency, µM (highest dose often 92.2 µM), for inactives: at the top dose inhibition of complex formation; AID 540263; Q14974; Rango CFP/YFP FRET sensor + importin beta, 45 min; active = rising FRET ratio curve, often small or poorly fitted; inconclusive = mostly compound fluorescence or quenching in the first reads; inactive = flat curves in all reads;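 note: potency is the fitted concentration of half-maximal effect; 0% = DMSO wells and 100% = buffer wells lacking importin beta; nearly all actives have a fitted effect of over 15% in size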
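Inhibition scored from the CFP 486 nm/YFP 530 nm FRET ratio 45 min after adding 0.125 microM importin beta to 50 nM Rango biosensor preincubated 5 min with compound (room temperature, PBS with DTT, Tween-20, BSA). No-importin wells as positive control.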
* = called active by the depositor; ? = inconclusive; . = not tested or not shown. A portion of the library (hit frequency here may not be typical).

SMILES	miR-21 FLuc	Rango dissoc inh	GLA inh pH 4.5	Rango complex inh
Cc1ccccc1N=C1NC(=O)CC(c2ccccc2)S1 (stereo unspecified)	-6%	-18%	-5	6.1%
CC(=O)Nc1ccc(NC(=O)c2cc(-c3cc(C)cc(C)c3O)n[nH]2)cc1	4%	11%	.	0.1%
CC1C(C#N)=C(SCC(N)=O)NC2=C1C(=O)CC(C)(C)C2 (stereo unspecified)	-4%	?	6	?
N#Cc1c(N)c(C#N)c(-c2ccc3c(c2)OCO3)c2c1CCCC2	-6%	2%	17	-1.9%
CC(C)NCCOCCOc1ccccc1F	-3%	-1%	4	-0.5%
O=C(CCCCCn1c(=O)[nH]c2ccsc2c1=O)NCc1ccc2c(c1)OCO2	-4%	7%	8	-0.4%
COc1ccc(CC(=O)Nc2ccc3c(c2)CCC3)cc1OC	7%	5%	-5	-0.7%
COC(=O)[C@H](Cc1c[nH]c2ccccc12)NCc1cccc(B(O)O)c1	.	6%	.	3.4%
CN(C(=S)Nc1ccc(F)cc1)C1(c2ccccc2Cl)CCCCC1=O (stereo unspecified)	-6%	-1%	-4	-4.0%
CC1CCCN(C(=O)CCNC(=O)Cn2cnc3ccccc3c2=O)C1 (stereo unspecified)	0%	26%	.	0.7%
O=C(Nc1cccc2ccccc12)N1CCc2ccccc2C1	-35%	-9%	1	-4.1%
CC1CC(C)CN(C(=O)c2cccc3c2-c2ccccc2C3=O)C1 (stereo unspecified)	-1%	1%	5	?
C=CCn1c(=NC(=O)c2cccc(N3C(=O)CCC3=O)c2)sc2cccc(OC)c21	2%	18%	-23	3.2%
Cc1cc(NC(=O)CSCc2nc(-c3cccc(Cl)c3)oc2C)no1	-12%	5%	-2	-3.2%
Cc1cc(=O)[nH]c(N/N=C/c2cccc([N+](=O)[O-])c2)n1	-5%	.	-6	.
CCC(C)NC(=O)Cn1c(=O)n(CCCCC(=O)NCc2ccco2)c(=O)c2ccccc21 (stereo unspecified)	-5%	2%	0	5.2%
CCN(CC)S(=O)(=O)c1ccc(C)c(NC(=S)N2CCN(C/C=C/c3ccccc3)CC2)c1	21%	21%	-16	4.0%
CN(C)C(CNC(=O)c1cccnc1Sc1ccccc1)c1ccco1 (stereo unspecified)	-5%	-4%	0	?
Cc1ccc(C(C(=O)NCc2ccccc2)N(C(=O)c2csnn2)C2CC2)cc1 (stereo unspecified)	1%	-14%	.	-5.4%
O=C(NC(=S)Nc1ccc(S(=O)(=O)N2CCCC2)cc1)C1CC1	6%	4%	5	0.5%

Shown bar-delimited: part of the list above
canonical_smiles | miR-21 FLuc | Rango dissoc inh | GLA inh pH 4.5 | Rango complex inh
CC(C)NCCOCCOc1ccccc1F | -3% | -1% | 4 | -0.5%
O=C(CCCCCn1c(=O)[nH]c2ccsc2c1=O)NCc1ccc2c(c1)OCO2 | -4% | 7% | 8 | -0.4%
COc1ccc(CC(=O)Nc2ccc3c(c2)CCC3)cc1OC | 7% | 5% | -5 | -0.7%
COC(=O)[C@H](Cc1c[nH]c2ccccc12)NCc1cccc(B(O)O)c1 | . | 6% | . | 3.4%
CN(C(=S)Nc1ccc(F)cc1)C1(c2ccccc2Cl)CCCCC1=O (stereo unspecified) | -6% | -1% | -4 | -4.0%
CC1CCCN(C(=O)CCNC(=O)Cn2cnc3ccccc3c2=O)C1 (stereo unspecified) | 0% | 26% | . | 0.7%
O=C(Nc1cccc2ccccc12)N1CCc2ccccc2C1 | -35% | -9% | 1 | -4.1%

Fetched by compound from above (6):
SMILES	miR-21 FLuc	Rango dissoc inh	GLA inh pH 4.5	Rango complex inh
CCN(CC)S(=O)(=O)c1ccc(C)c(NC(=S)N2CCN(C/C=C/c3ccccc3)CC2)c1	21%	21%	-16	4.0%
CC1CC(C)CN(C(=O)c2cccc3c2-c2ccccc2C3=O)C1 (stereo unspecified)	-1%	1%	5	?
C=CCn1c(=NC(=O)c2cccc(N3C(=O)CCC3=O)c2)sc2cccc(OC)c21	2%	18%	-23	3.2%
CN(C)C(CNC(=O)c1cccnc1Sc1ccccc1)c1ccco1 (stereo unspecified)	-5%	-4%	0	?
Cc1ccc(C(C(=O)NCc2ccccc2)N(C(=O)c2csnn2)C2CC2)cc1 (stereo unspecified)	1%	-14%	.	-5.4%
O=C(Nc1cccc2ccccc12)N1CCc2ccccc2C1	-35%	-9%	1	-4.1%

Next section
SMILES	miR-21 FLuc	Rango dissoc inh	GLA inh pH 4.5	Rango complex inh
CCn1c(SC(C)C(=O)NCC2CCCO2)nc2scc(-c3ccccc3)c2c1=O (stereo unspecified)	.	1%	.	-1.4%
COc1ccc(CCN2CC(C(=O)NC3CCCCC3)CC2=O)cc1OC (stereo unspecified)	-4%	-8%	-2	0.1%
COc1ccc(Cl)cc1NC(=O)c1cc(-c2ccco2)on1	-2%	-1%	.	4.9%
CCOc1ccc(C2(C)NC(=O)N(CCN(C)C)C2=O)cc1 (stereo unspecified)	2%	22%	.	-1.8%
CCN(CC)c1ccc(/C=C2/C(=O)ON=C2C)cc1	-2%	3%	-1	-0.2%
CCCCn1c(N)c(N(CC(C)C)C(=O)CSc2ccccc2C)c(=O)[nH]c1=O	.	5%	.	?
CCOc1ccccc1NC(=O)C(OC(=O)c1ccccc1)c1ccccc1 (stereo unspecified)	-6%	16%	-3	-4.6%
CCc1nnc(NC(=O)c2ccc(S(=O)(=O)N(CC)CC)cc2)s1	-5%	9%	-5	-8.1%
Cc1ccc(CNC(=O)C2CC(=O)N(C3CCCC3)C2)cc1 (stereo unspecified)	.	26%	.	-0.6%
CN1C(=O)/C(=C\c2cc(N=Nc3ccccc3)ccc2O)SC1=S	-6%	3%	4	3.4%
CCOC(=O)Cn1c(=O)oc2cc(S(=O)(=O)NCCc3ccc(C)cc3)ccc21	-1%	-3%	-12	-0.7%
S=C(N/N=C/c1ccco1)NC1CC2CCC1C2 (stereo unspecified)	-52%	-2%	.	0.9%
O=C(NCCc1ccccc1)C1CCC(Cn2c(=O)c3ccccc3n(Cc3cccnc3)c2=O)CC1 (stereo unspecified)	-7%	0%	-1	5.4%
CN1C(=O)C(c2nnc(Nc3cccc4ccccc34)s2)C2CC1(C)Oc1ccccc12 (stereo unspecified)	12%	-9%	-1	-0.4%
COc1ccc(/C=N/NC(=O)CN(C)S(=O)(=O)c2ccc(NC(C)=O)cc2)cc1	4%	5%	-3	-0.2%
Cc1ccc(/C=N/NC(=O)c2cc(C)oc2C)o1	-20%	4%	-6	?
Cc1cc(C)cc(NC(=O)COc2coc(CN3CCN(c4ccccc4)CC3)cc2=O)c1	.	-9%	.	1.3%
CCCC1NC(=O)NC(C)=C1C(=O)OCC (stereo unspecified)	2%	?	-2	?
CCN(CC(=O)Nc1ccc(OC)cc1)C(=O)c1cc(S(=O)(=O)N(C)C)ccc1N1CCCC1	.	4%	.	-1.2%
CCC(C)(C)n1nnnc1C(c1cc2ccc(C)cc2[nH]c1=O)N(Cc1cccnc1)Cc1ccco1 (stereo unspecified)	0%	2%	-2	2.0%
O=C(NCCOc1cccc(Oc2ccccc2)c1)c1cc(-n2cnnc2)ccc1Cl	-1%	-10%	2	3.7%
Cc1ccccc1OCc1nc2c3c(ncn2n1)-c1ccccc1CC31CCCC1	2%	6%	2	?
Cc1ccc(N(C(=O)CNC(=O)c2ccco2)C(C(=O)NC2CCCC2)c2ccncc2)c(C)c1 (stereo unspecified)	-2%	17%	.	10%
Cc1noc(NS(=O)(=O)c2ccc(NC(=O)CSc3nc4ccccc4s3)cc2)c1C	-9%	-5%	-1	6.2%
O=c1[nH]c2c(s1)C=Nc1ccccc1N2	-19%	?	7	?
CCOC(=O)CCn1cc(F)c(=O)[nH]c1=O	-1%	-3%	-6	3.4%
N#Cc1c(C#N)c(-c2ccccc2)n(-c2ccccc2)c1N	-20%	-1%	-4	1.9%
O=[N+]([O-])c1cccc2c(N3CCCC3)ccnc12	19%	-4%	-3	-3.2%
